GIV-Gai inh – inhibitors of GIV peptide binding to Galpha-i3, primary screen, biochemical, fluorescence polarization, FITC-GIV GBA peptide, rat Galphai3 | Guanine nucleotide-binding protein G(i) subunit alpha-3 (Rattus norvegicus), P08753 | 90 min; hits give low values; scaled: aluminum fluoride 0%, vehicle 100% | percent of control (FP), % (test concentration not listed) | hit rate 0.42% among 210,000 | AID 1224905, 2016;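 active = replicate mean at 85% of control or lower, very high polarization wells dropped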;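 also: wells of about 15 µL received 100 nL stock; the first replicate is given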
Target sequence (P08753 whole entry, looked up): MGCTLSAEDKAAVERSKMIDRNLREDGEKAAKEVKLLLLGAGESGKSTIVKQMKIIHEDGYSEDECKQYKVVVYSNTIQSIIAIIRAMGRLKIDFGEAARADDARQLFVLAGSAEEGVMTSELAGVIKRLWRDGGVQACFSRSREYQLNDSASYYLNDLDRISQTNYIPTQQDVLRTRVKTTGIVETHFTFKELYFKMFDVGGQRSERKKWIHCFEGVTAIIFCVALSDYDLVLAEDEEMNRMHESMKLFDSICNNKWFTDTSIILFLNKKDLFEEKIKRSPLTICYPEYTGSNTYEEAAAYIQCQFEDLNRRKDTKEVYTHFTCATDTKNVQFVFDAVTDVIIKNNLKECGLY
Sa growth inh – S. aureus growth inhibition at 42 and 30 °C, primary screen, LtaS inhibitor project, RN4220, two temperatures | OD600, 20 h, 42 °C; hits give low values | relative growth, % (no concentration beside the values) | hit rate 0.53% among 170,000;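 active = growth at 42 °C up to 50% and 20 or more points under that at 30 °C, or under 10% at both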;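 also: 300 nL library stock went into each well; scaled to the means of positive and negative controls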
HCMV UL50-53 inh – inhibitors of HCMV UL50-UL53 interaction, biochemical, HTRF; normalized percent inhibition; HCMV UL50-UL53 nuclear egress complex (human cytomegalovirus); hit rate 0.15% among 190,000; AID 1918969, 2023; inhibition, % (concentration not given with the values);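 active = both replicates at 50% or more, plus weaker picks with an unusually low signal ratio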;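 also: stock transfer was 100 nL into about 20 µL; 0% = negative control wells and 100% = wells with untagged competitor protein; inactives centre near -12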
Sa growth inh second temp – recorded beside Sa growth inh, whose call it bears; relative growth, %; measured here: growth at 30 °C;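 optical density after 20 h as mean of two plates; 100% = untreated growth and lower means inhibition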
* marks the source's active call; other numbers are inactive results; / = not tested or not shown. Rows were taken by chance. Share with any hit: about 0.82%.

structure	GIV-Gai inh	Sa growth inh	Sa growth inh second temp	HCMV UL50-53 inh
Cc1ccc(NC(=O)CSc2nc3n[nH]c(C)c3c(=N)n2-c2ccccc2C)cc1C	100.6	106.3	83.7	/
CCN1CCN(c2ccc(NC(=O)c3cccc(Br)c3)cc2)CC1	/	93.1	98.9	-1.9
CCCCOc1ccc(C2C(=O)N(C3CCCCC3)CC(=O)N2CCCC)cc1 (centres undefined)	103.2	103.4	85.2	/
Cc1ccc(NC(=O)CCCn2c(=S)[nH]c3ccsc3c2=O)cc1C	106.4	95.8	88.1	/
COC(=O)Cc1[nH]nc2c1C1(CCOC1C)C(C#N)=C(N)O2 (centres undefined)	/	79.5	96.7	9.6
O=C(COc1ccc2c(=O)c(-c3ccccc3)coc2c1)OC1CCCCC1	101.1	82.8	83.9	/
Cc1ccccc1NC(=O)Cn1c(=O)n(CCC(=O)N2CCc3ccccc3C2)c(=O)c2ccccc21	105.1	93.5	86.4	-11.2
O=C(Oc1cccc2cccnc12)c1cccs1	104.2	56.7	1.4	-13.9
CCN1CCN(c2ncc3c(n2)CCN(Cc2sccc2C)C3)CC1	107.4	109.3	94.8	/
O=C(c1ccc(Br)cc1)N1CCC(c2nc(-c3ccc(Cl)cc3)no2)CC1	96.9	/	/	-3.9
Cc1noc(C)c1CC(C#N)(Cc1c(C)noc1C)c1nc(-c2ccc(Cl)cc2Cl)cs1	/	71.0	90.0	-13.6
O=C(CN(c1ccc(Cl)c(C(F)(F)F)c1)S(=O)(=O)c1ccccc1)Nc1cccnc1	106.6	100.8	68.8	-25.9
O=C(CSc1ncn(-c2ccccc2)n1)N1CCc2ccccc21	102.0	109.8	92.7	-4.9
CCc1ccc(-c2nc(CSCC(=O)NCc3ccccc3)c(C)o2)cc1	100.5	89.0	84.2	/
Cc1cccc(C)c1NC(=O)C1CCCN1S(=O)(=O)c1ccccc1 (centres undefined)	103.8	126.8	86.8	/
CCCOc1ccc(CNC(=O)C(C)n2nc(C)n3c(cc4occc43)c2=O)cc1 (centres undefined)	98.7	100.6	87.3	-19.3
Cc1ccc(NC(=O)N2CCc3c([nH]c4ccccc34)C2c2cccnc2)cc1C (centres undefined)	104.7	/	/	-13.0
CCOC(=O)c1cccc(NC(=O)CC(c2ccc(F)cc2)N2Cc3ccccc3C2=O)c1 (centres undefined)	102.4	114.1	94.0	/
Cc1ccc(NC(=O)c2nc(S(C)(=O)=O)ncc2N(Cc2ccco2)Cc2ccccc2F)c(C)c1	92.0	98.7	94.1	-1.0
CCn1cc(C(=O)NCCCN(CC(C)C)CC(C)C)c(=O)c2cc(S(=O)(=O)N3CCc4ccccc4C3)ccc21	94.5	108.1	89.9	-8.5

Some of these compounds in order of formula weight, highest first:
structure	GIV-Gai inh	Sa growth inh	Sa growth inh second temp	HCMV UL50-53 inh
CCn1cc(C(=O)NCCCN(CC(C)C)CC(C)C)c(=O)c2cc(S(=O)(=O)N3CCc4ccccc4C3)ccc21	94.5	108.1	89.9	-8.5
Cc1ccccc1NC(=O)Cn1c(=O)n(CCC(=O)N2CCc3ccccc3C2)c(=O)c2ccccc21	105.1	93.5	86.4	-11.2
COC(=O)Cc1[nH]nc2c1C1(CCOC1C)C(C#N)=C(N)O2 (centres undefined)	/	79.5	96.7	9.6

Continuation:
structure	GIV-Gai inh	Sa growth inh	Sa growth inh second temp	HCMV UL50-53 inh
O=C1Nc2ccccc2C1=Nc1ccc(Br)cc1	106.8	86.5	87.4	-37.2
O=C(Nc1c(C(=O)N2CCN(c3ccccc3F)CC2)oc2ccccc12)c1ccc(Br)o1	100.7	134.8	88.7	-9.9
O=S(=O)(Cc1ccccc1)N1CCCC1c1ccccc1F (centres undefined)	101.1	/	/	14.2
Cc1ccc2c(c1)c1c3n2CCCNC3CCC1 (centres undefined)	101.7	93.5	86.5	-11.3
Cc1cc(OC(C)C(=O)N(Cc2ccco2)Cc2ccccc2F)cc(C)c1Cl (centres undefined)	106.1	86.5	100.3	-18.4
COc1cccc(C(N)=O)c1OC(=O)COc1ccc(Br)cc1	/	113.7	73.3	-11.8
CNC(=O)C12CC3CC(CC(C3)C1)C2	/	103.3	89.4	-23.4
CCc1ccc(NC(=O)Cn2c(=O)c(-c3ccccc3NC(C)=O)nc3ccccc32)cc1	101.0	89.9	80.6	0.3
COc1ccc(Br)cc1C(=O)Nc1nc2ccc(F)cc2s1	104.4	101.9	86.1	-14.6
Cc1ccccc1NC1=C(C(=O)c2ccccc2)N(C)S(=O)(=O)c2ccccc21	109.0	110.8	84.1	/
N=C(N)SCC1CN=C(N2CCCC2)S1 (centres undefined)	101.0	117.7	85.2	/
Cc1ccc(Cn2nc(C)c(C(=O)N=c3sccn3C)c2Cl)cc1	/	101.2	69.9	-7.8
O=C1CN(c2cccc(C(F)(F)F)c2)C(=O)CN1/N=C/c1cccnc1	100.9	93.0	85.9	-50.1
O=S(=O)(Nc1ccccc1CO)c1ccc(S(=O)(=O)N2CCCC2)cc1	/	73.4	92.7	-17.1
CCCCN1Cc2c(sc3c2CCCC3)N(C(C)=O)C1	101.9	98.9	83.5	-30.8
CCc1nc2c(cnn2-c2ccc(F)cc2)c(=O)n1-c1ccc(OC)c(Cl)c1	100.5	95.0	84.0	/
Cc1cccc(-n2c(SCc3c(C)noc3C)nc3ccccc32)c1	/	106.8	81.8	-1.7
O=C(CN1CCNC(=O)C1)NCCc1ccc(F)cc1	/	84.3	97.2	3.5
COc1cc(C(=O)Nc2cccc3c2C(=O)c2ccccc2C3=O)cc(OC)c1OC	96.3	/	/	8.3
O=C1CCCN1CCCn1c(SCc2c(F)cccc2F)nc2ccccc2c1=O	97.9	92.1	80.0	4.8

Reprinted at random: three records from the list
structure	GIV-Gai inh	Sa growth inh	Sa growth inh second temp	HCMV UL50-53 inh
CCc1nc2c(cnn2-c2ccc(F)cc2)c(=O)n1-c1ccc(OC)c(Cl)c1	100.5	95.0	84.0	/
CCCCN1Cc2c(sc3c2CCCC3)N(C(C)=O)C1	101.9	98.9	83.5	-30.8
COc1cc(C(=O)Nc2cccc3c2C(=O)c2ccccc2C3=O)cc(OC)c1OC	96.3	/	/	8.3

(cont.)
structure	GIV-Gai inh	Sa growth inh	Sa growth inh second temp	HCMV UL50-53 inh
CCOCCOC(=O)C(C)Oc1ccc2c(=O)c(Oc3cccc(C)c3)c(C(F)(F)F)oc2c1 (centres undefined)	101.2	/	/	-11.8
Cc1cc(C)cc(OC(C)C(=O)Nc2ccc3c(c2)n(C)c(=O)n3C)c1 (centres undefined)	98.9	117.4	89.2	/
Cc1ccc(C)c(OC(=O)CSc2nnc(-c3cccs3)o2)c1	100.1	93.3	84.8	-30.2
CCn1cc(CCC(=O)NCCN2CCOCC2)c2ccccc21	103.3	90.0	93.2	-11.0
COc1ccc(C(=O)CN2C(=O)c3ccccc3S2(=O)=O)cc1	103.6	103.0	84.7	31.7
CCOc1ccc(NC(=O)c2oc3ccccc3c2NC(=O)c2cc(C)cc(C)c2)cc1	106.4	109.4	85.6	-24.8
COC(=O)C1=CN(c2cccc(C(F)(F)F)c2)C=C(C(=O)OC)C1c1ccc(F)cc1	104.3	93.9	93.1	/
O=C(c1ccc2c(c1)OCCO2)n1cccn1	103.3	99.5	105.0	-0.1
O=C(c1noc2c1CCCCC2)N1CCN(c2cccc(C(F)(F)F)c2)CC1	97.9	103.9	71.6	/
CN(C)c1ccc(C2Nc3ccc(C(=O)c4ccccc4)cc3NC3=C2C(=O)CC(C)(C)C3)cc1 (centres undefined)	102.3	/	/	-18.3
Cc1ccc(CNC(=O)c2oc3c(c2C)-c2nn(Cc4ccc(Cl)cc4)cc2CC3)cc1	97.4	126.1	96.0	-13.0
Nc1nc2c(ncn2[C@@H]2O[C@H](CO)[C@@H](O)[C@@H]2O)c(=O)[nH]1	97.9	/	/	-3.8
CN(C)C(=O)NCCc1ccc(F)cc1	102.2	98.5	104.5	-4.7
Cc1ccc(-c2cn3c(n2)sc2cc(C(=O)O)ccc23)c(C)c1	104.2	101.9	85.8	/
CCCCNC(=O)Nc1ccc(S(=O)(=O)Nc2cccc(Cl)c2)cc1	/	106.0	99.8	-10.2
CCNC(=O)NC1(C(=O)O)CC2CCC1(C)C2(C)CC (centres undefined)	/	98.5	101.5	3.9
O=c1onc(-c2cccnc2)n1-c1ccccc1	97.3	120.2	85.2	-3.8
Cc1ccc(CN2CCC(CNC(=O)Nc3ccc(C)c(C)c3)C2)cc1 (centres undefined)	103.5	109.4	86.5	-6.4
CCSc1nccn2nc(-c3cccs3)cc12	105.1	/	/	-3.2
CS(=O)(=O)C(C#N)=C1SCCCCS1	99.3	102.0	84.9	-1.0
CSC1=NC2(CCN(C(=O)NC3CCCCC3)CC2)N=C1c1ccccc1	113.1	93.9	98.8	-6.2
CCC(=O)N1CCc2cc(Br)cc(S(=O)(=O)Nc3ccc(C)cc3C)c21	101.9	117.0	91.0	/
CCCCN(CC)Cc1ccc(CNC(=S)Nc2cccc(F)c2)o1	105.3	90.8	88.0	-19.7
O=C1CCCc2cc(S(=O)(=O)NCCC(=O)NC3CCCCC3)ccc2N1	105.2	107.3	87.2	-28.7
Cc1ccc(N2CC(C(=O)NCc3nnnn3-c3ccc(C)c(C)c3)CC2=O)cc1C (centres undefined)	97.0	96.0	90.9	/
COc1ccc(C(=O)NCc2n[nH]c(=O)c3ccccc23)c(OC)c1	99.4	103.2	86.2	-32.3
Cc1ccc(NC(=O)COC(=O)c2c(C)nsc2N)cc1C	/	77.0	92.7	-11.3
CCOc1cc(/C=C2\N=C(c3cccc(Cl)c3)OC2=O)cc(Br)c1OC(C)=O	102.2	/	/	-20.1
Cc1ccc(C)c(NC(=O)C2=CCN(S(=O)(=O)c3ccc(F)cc3)CC2)c1	103.6	107.7	89.4	/
O=C(CCc1nc2ccccc2c(=O)[nH]1)N1CCN(c2ccccc2)CC1	/	89.3	93.1	-3.9
COc1ccc(C2Nn3c(C)nnc3SC2C(=O)NCc2ccco2)cc1Cl (centres undefined)	102.8	122.2	94.3	/
CN(C)NC1CCS(=O)(=O)C1 (centres undefined)	103.3	102.2	99.0	-2.6
Cc1ccc(N=Cc2ccc(C)o2)cc1	122.1	87.5	86.2	-18.2
CSc1nc2c([nH]c3ccccc32)c(=O)n1C	100.2	86.8	90.0	-46.1
CCN1CCN(CC(=O)Nc2ccc(Cl)cn2)CC1	111.9	96.0	101.4	-12.2
CC(NC(=O)c1ccccc1)C(=O)NN (centres undefined)	/	99.6	100.7	-0.3
CC(=O)Oc1ccc(OCc2ccccc2)cc1	110.0	85.6	92.9	5.9
CCCNC(=O)c1ccc(-c2nc(CS(=O)(=O)c3ccccc3)c(C)o2)cc1	102.8	115.4	105.7	-23.3
CCc1nnc2sc(-c3ccc(Cl)cc3)nn12	102.5	91.9	69.9	-18.6
CCOC(=O)c1cc(S(=O)(=O)C(C)C)c(SC)s1	106.2	103.2	95.8	-21.1
O=C(O)CCC(=O)Nc1nc2n(n1)C(c1ccccc1)C=C(c1ccccc1)N2 (centres undefined)	83.2*	86.1	84.4	-26.2
O=S(=O)(CCN1CCN(C(c2ccccc2)c2ccccc2)CC1)c1ccc(Cl)cc1	100.9	93.7	85.0	1.5
CC1=C(C(=O)OC(C)C)C(C2CC=CCC2)NC(=O)N1 (centres undefined)	/	73.8	84.8	-13.3
COc1cccc(CNC(=O)c2oc3c(c2C)-c2nn(Cc4cccc(Cl)c4)cc2CC3)c1OC	97.3	97.7	76.6	-18.0
CSc1nnc2c(n1)OC(c1ccccc1)N(C(C)=O)c1ccccc1-2 (centres undefined)	101.4	111.2	93.7	-75.2
Cc1ccc(-n2c(NN)nc3ccccc3c2=O)c(C)c1	/	72.3	72.5	-26.4
O=C(CCNS(=O)(=O)c1ccccc1F)N1CCN(c2ccccc2Cl)CC1	/	91.6	90.1	-7.2
O=C(CC1CCN(S(=O)(=O)c2ccccc2)CC1)N1CCN(c2ccccc2)CC1	96.1	/	/	-25.5
Cn1c(=O)n(CC(=O)O)c(=O)c2c1nc1n2CCCN1c1ccc(Br)cc1	99.4	/	/	-20.9
COc1cccc(NC(=O)CC(NC(C)=O)c2ccccc2)c1 (centres undefined)	/	78.7	97.9	-3.7
Cc1oc2ncnc(N3CCOCC3)c2c1C(=O)NCc1ccc(Cl)cc1	102.6	84.7	83.5	/
Cc1oc2ncn(CCC(=O)N3CCCC3)c(=O)c2c1C	107.6	/	/	-22.1
CSc1nc(N2CCCC2)nc(-c2ccco2)c1C#N	105.0	101.7	96.2	-2.6
CSC1=C(C#N)C(=O)NC(c2cccs2)S1 (centres undefined)	99.4	84.0	72.0	-13.2
Fc1ccccc1OCCSc1nc2ccccc2s1	101.1	85.7	82.5	/
Cc1nc2c(c(C)c1CCC(=O)N1CCC(C)CC1)c(=O)n(C)c(=O)n2C	99.8	79.3	83.8	/
O=C1CC(c2cccc(O)c2)c2c(nc(SCc3ccccc3F)[nH]c2=O)N1 (centres undefined)	100.0	94.7	89.1	5.4
